# Compound activity as filed in PubChem BioAssay.
# BasE inh = BasE siderophore enzyme inhibitors, primary screen, biochemical, Acinetobacter baumannii ATCC 17978, fluorescence polarization; AID 485350, 2010; purified BasE, fluorescence polarization binding displacement; 0.1% of 84,000 active; inhibition, % (test concentration not listed);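 active means both replicates above 25% with normal brightness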;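 further: 0% = negative plate control signal and 100% = positive plate control signal; stock transfer was 100 nL into about 30 µL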
# KSHV LANA nucl = inhibitors of KSHV LANA-nucleosome binding, primary screen, biochemical, fluorescence polarization, FITC-LANA1-23, chicken nucleosomes | FITC-LANA1-23 / chicken nucleosome fluorescence polarization; hits give low values | z-score (concentration not given with the values) | 0.3% of 51,000 active;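 active means both repeat wells score below -2 in polarization z-score versus plate sample wells, excluding overly bright wells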;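 further: 100 nL library stock added to about 30 µL; numbers are from one replicate; some results filed as inactive read as strong as hits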
#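 Assay system: FITC-LANA peptide and chicken nucleosomes; input: 240 nM purified chicken nucleosomes (480 nM peptide binding sites), final; also added: 50 nM FITC-LANA1-23 probe; medium: TEN-BT buffer, pH 7.5; doses: pin-transferred compound, 100 nL; times: 10–45 min, room temperature; technique: fluorescence polarization; replication: duplicates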
# Active calls of the source: *; . = not tested or not shown. Not all compounds are listed; the hit share may differ from the screen's.
SMILES,BasE inh,KSHV LANA nucl
Cn1nc(C(=O)N(Cc2ccco2)Cc2cccs2)ccc1=O,-1.7,.
OC(CSc1nncn1-c1ccccc1)C(F)(F)F (stereo not given),-2.9,0.538
CC1(NS(C)(=O)=O)CC=CC1,-4.2,2.02
O=C(CCCc1ccccc1)Nc1cccc(C(=O)O)c1,1.2,-0.338
CN(C(=O)CSc1cccc[n+]1[O-])c1ccccc1,0.4,.
O=C(CCC1CCCCC1)Nc1nccs1,1.3,-0.234
Cc1cc(C=C(C#N)C#N)c(C)n1-c1ccc(N2CCOCC2)cc1,-0.8,-0.132
CC(=O)Oc1ccc2ccc3ccc(OC(C)=O)c4ccc1c2c34,2.3,.
CCN(CC)c1ccc(/C=C2/C(=O)N=C(N)N2C)cc1,-7.7,.
CCOC(=O)c1sc(=NC(C)=O)n(C)c1C,-1.7,-1.11
COC(=O)c1cc(C)nc2c1c(C)nn2-c1ccccc1Cl,2.0,0.171
C=CCN1CCN(C(=O)c2ccc(Br)cc2)CC1,-1.2,0.188
CNC(=O)CN(c1ccc(Cl)cc1Cl)S(C)(=O)=O,0.5,0.602
O=C1c2ccccc2C2=Nc3ccccc3OC12O (stereo not given),-2.1,0.607
Clc1ccc(-c2ccc(-c3nn4c(Cc5ccccc5)nnc4s3)o2)cc1,-0.8,-0.926
O=C1CCCc2[nH]c(=O)cc(C(F)(F)F)c21,1.2,.
CC1=Nc2nc(N3CCCCC3)c(C#N)c3c4c(nc(c23)N1)N(c1ccc(C)cc1)C(=O)C4,-1.0,.
CC(C)Cn1c(SCC(=O)c2ccc3[nH]c(=O)[nH]c3c2)nc2ccccc21,0.5,.
Cc1ccccc1NC(=O)COC(=O)c1ccc2c(c1)C(=O)N(CCCN1CCOCC1)C2=O,3.0,.
O=c1ccc(=O)n(CN2CCN(Cc3ccccc3)CC2)[nH]1,0.8,0.236

# A second format for some results above.
structure	BasE inh	KSHV LANA nucl
CC1(NS(C)(=O)=O)CC=CC1	-4.2	2.02
O=C(CCCc1ccccc1)Nc1cccc(C(=O)O)c1	1.2	-0.338
CN(C(=O)CSc1cccc[n+]1[O-])c1ccccc1	0.4	.
O=C(CCC1CCCCC1)Nc1nccs1	1.3	-0.234
Cc1cc(C=C(C#N)C#N)c(C)n1-c1ccc(N2CCOCC2)cc1	-0.8	-0.132
CC(=O)Oc1ccc2ccc3ccc(OC(C)=O)c4ccc1c2c34	2.3	.
CCN(CC)c1ccc(/C=C2/C(=O)N=C(N)N2C)cc1	-7.7	.
CCOC(=O)c1sc(=NC(C)=O)n(C)c1C	-1.7	-1.11
COC(=O)c1cc(C)nc2c1c(C)nn2-c1ccccc1Cl	2.0	0.171
C=CCN1CCN(C(=O)c2ccc(Br)cc2)CC1	-1.2	0.188
CNC(=O)CN(c1ccc(Cl)cc1Cl)S(C)(=O)=O	0.5	0.602
O=C1c2ccccc2C2=Nc3ccccc3OC12O (stereo not given)	-2.1	0.607
Clc1ccc(-c2ccc(-c3nn4c(Cc5ccccc5)nnc4s3)o2)cc1	-0.8	-0.926
O=C1CCCc2[nH]c(=O)cc(C(F)(F)F)c21	1.2	.
CC1=Nc2nc(N3CCCCC3)c(C#N)c3c4c(nc(c23)N1)N(c1ccc(C)cc1)C(=O)C4	-1.0	.

# (further entries)
SMILES,BasE inh,KSHV LANA nucl
CCN1CCCC1CNC(=O)c1cc2ccc3cccnc3c2[nH]1 (stereo not given),-12.1,.
CC(C)(C)S(=O)(=O)CCC#N,1.0,-0.277
CCOc1ccccc1C(=O)Nc1ccc(Cl)cc1,2.2,.
NC(=O)c1c(NC(=O)c2ccc3c(c2)S(=O)(=O)N=C2CCCCCN23)sc2c1CCC2,-0.9,.
CCOCCCNc1ncnc2c1cnn2-c1ccc(F)cc1,-0.8,0.166
COc1ccc(C2CC(c3cccs3)Nc3nc4ccccc4n32)cc1 (stereo not given),1.6,.
O=c1[nH]nc2c3c(cccc13)-c1ccccc1-2,-2.8,1.91
CC1(C)CCC(C)(C)c2cc(C(=O)Nc3ccc(C(=O)O)cc3)ccc21,-1.6,0.0875
CCN(CC)CCN(C)Cc1cc(OC)c(OC)cc1OC,1.6,-0.792
Nc1ccc(S(=O)(=O)C(F)(F)F)cc1N,0.0,.
CC#CCC(C)[C@H](O)/C=C/[C@@H]1[C@H]2C/C(=C/CCCC(=O)O)C[C@H]2C[C@H]1O (stereo not given in full),.,0.931
Cc1cccc(C)c1N1CCN(S(=O)(=O)N2CCCCC2)CC1,1.9,-1.66
OCc1cn(-c2ccccc2)nc1-c1ccc2c(c1)OCCO2,-1.4,0.237
C#CC(CC)(CC)NC(=O)NC1CCCCC1,0.4,-0.643
O=C(CC12CC3CC(CC(C3)C1)C2)NCC(=O)N1CCN(Cc2ccccc2)CC1,-1.6,1.39
Cc1nc(N2CCOCC2)sc1C(=O)c1ccc(Cl)c(S(=O)(=O)N2CCOCC2)c1,-2.5,.
Cc1cc(C(=O)N/N=C\c2ccccc2)n[nH]1,-2.1,0.683
O=C(Nc1cccc(Cl)c1)C1=CC(=O)N2CCN=C2S1,2.7,-0.148
Brc1ccc(Nc2ncnc3ccccc23)cc1,-5.4,.
CN(C)c1ccc(CNC(=O)C(NS(=O)(=O)c2ccc3c(c2)CCC(=O)N3)c2ccccc2)cc1 (stereo not given),-0.1,-2.28
COc1ccccc1-c1nn2c(Cn3cnc4ccccc43)nnc2s1,-2.5,-0.082
C/[N+]([O-])=C/c1ccccc1,.,-0.503
COc1ccc2c(CC(=O)OCc3cc(Cl)c4c(c3)OCCCO4)coc2c1,0.2,.
c1ccc2sc(NC3=NCN(Cc4ccc5c(c4)OCO5)CN3)nc2c1,1.3,-0.361
COc1cc(SC)ccc1C(=O)NCC1CCCCC1,1.1,.
O=C(COCc1cc(-c2ccc3c(c2)OCO3)on1)NC1CCCc2ccccc21 (stereo not given),-0.9,1.19
CCOC(=O)C(C#N)C1(c2c(C)[nH]n(-c3ccccc3)c2=O)C(=O)N(c2ccccc2)N=C1C (stereo not given),2.3,.
C(=N\n1cnnc1)/c1cccc2ccccc12,0.8,.
O=C(CCCc1nnc2c(=O)n(-c3ccc(Cl)cc3)ccn12)N1CCc2ccccc2C1,-4.8,2.47
COc1ccc(/C(C#N)=C/c2ccc3c(c2)OCO3)cc1OC,4.5,.
Cc1nc2ccccc2c2oc(C(=O)NCCCN3CCC(C)CC3)cc12,-0.8,0.0465
O=C(NC1CCCCC1)C(c1ccc(F)cc1)N(Cc1ccco1)C(=O)c1ccccn1 (stereo not given),-0.3,-0.172
CC(=O)Nc1cccc(Nc2ncnc3c2cnn3C)c1,-1.6,-1.3
COc1ccc(NC(=O)[C@@H](NC(=O)c2ccc(C)cc2)C(C)C)cc1OC,-0.1,.
N#Cc1c(/N=C/c2c(O)[nH]c(=O)[nH]c2=O)sc2c1CCC2,1.8,.
Cc1ccc(CN2C(=O)CCC2C(=O)NCCCN2CCCCC2)cc1 (stereo not given),1.8,0.453
CCCCN(CC)C(=O)c1cn(CC)c2nc(C)ccc2c1=O,1.4,-1.4
Cc1nc2c(=O)oc3ccccc3c2n1C(C)C,-0.3,-0.497
Cc1ccc(Cl)cc1N1CCN(C(=O)/C=C/c2ccc(S(=O)(=O)NCc3ccco3)cc2)CC1,-0.4,.
O=C1N2CCSC2=NC1(Nc1nccs1)C(F)(F)F (stereo not given),0.4,0.0335

# Brought forward from above: two compounds, then new ones.
SMILES,BasE inh,KSHV LANA nucl
Cc1ccc(Cl)cc1N1CCN(C(=O)/C=C/c2ccc(S(=O)(=O)NCc3ccco3)cc2)CC1,-0.4,.
O=C1N2CCSC2=NC1(Nc1nccs1)C(F)(F)F (stereo not given),0.4,0.0335
COCCN(Cc1ccccc1)C(=O)Cc1c(C)noc1C,-3.0,.
COc1cccc(-c2nc(C(N)=O)c3c(n2)n(-c2cccc(OC)c2)c(=O)n3C)c1,1.1,0.274
CC(C)(C)NC1=C(C(=O)c2ccccc2)N(CC(=O)c2ccccc2)S(=O)(=O)c2ccccc21,-1.1,.
CC1CCC(NC(=O)Nc2cn(C)c(=O)c3ccccc23)CC1 (stereo not given),2.5,0.373
CN(Cc1ccc(Br)s1)Cc1cc2c(cc1O)OCO2,1.6,.
N#CC(C#N)=Cc1cn(-c2ccccc2)nc1C12CC3CC(CC(C3)C1)C2,-1.8,-0.188
CCC1CCCCN1c1ncnc2c1nnn2Cc1ccccc1Cl (stereo not given),1.9,0.599
COc1cccc(N(C)C(=O)c2ccc(Cl)c(S(=O)(=O)N(C)C)c2)n1,-2.3,.
CCC1(CC)COC2(OC1)C(=O)Nc1ccc(F)cc12,0.5,.
COc1ccc(CCNC(=S)N(C)C)cc1OC,0.8,.
Cn1nc(C(=O)N(CCCN2CCOCC2)Cc2ccco2)c2c1-c1ccccc1SC2,-2.7,-1.17
O=C1C2CC=CCC2C(=O)N1c1ccccc1O (stereo not given),4.6,.
Cc1ccccc1-c1nc(C#N)c(NCCN2CCOCC2)o1,-1.0,0.647
COC1C=CC23c4cc5c(cc4CN(C[C@H]2O)[C@@H]3C1)OCO5 (stereo not given in full),-0.1,0.163
COCC(C)NS(=O)(=O)c1ccc(NC(=O)C(Cc2ccccc2)NC(N)=O)cc1 (stereo not given),1.4,.
C/C(=N\NC(=O)c1cccc(S(=O)(=O)Nc2ccc(C)cc2C)c1)c1ccco1,0.7,.
COc1ccc(CNC2CCCCC2C)cc1 (stereo not given),0.0,1.25
O=C(Cc1cccc(F)c1)N1CCN(S(=O)(=O)c2ccc3c(c2)OCCO3)CC1,1.4,.
CC(C)(C)P(=NC(=O)COc1ccccc1)(N1CCCCC1)N1CCCCC1,-0.7,.
CCN(CC)CP(=O)(c1ccccc1)c1ccccc1,-1.4,0.246
CC(=O)NNc1ccc2nc(C)sc2c1,-2.3,0.792
O=C(Nc1ccc(OC(F)(F)F)cc1)c1ccccc1-n1cnnn1,4.6,.
CCC(=O)Nc1ccc(C(=O)NCC(=O)OC)cc1,2.1,-1.26
CCc1cccc(C)c1N1C(=O)CC(C)C1=O (stereo not given),3.5,-0.947
O=S(Cc1cc(Cl)nc(-c2ccccc2)n1)c1ccccc1 (stereo not given),.,0.583
O=C(O)c1cccc2ncccc12,1.2,0.237
O=C(CSCCCc1ccccc1)NC1CCS(=O)(=O)C1 (stereo not given),1.0,.
CCC(CC)C(=O)Oc1coc(CSc2nc(C)cs2)cc1=O,-0.9,-0.751
CCCCNc1c2c3c(cccc3[nH]c1=O)C(=O)c1ccccc1-2,16.8,-2.1
O=C(CSc1ccc2c(c1)OCCO2)N1CCc2ccccc2C1,-0.5,.
CN(C)CCCn1c(-c2ccccc2)cc(=S)c2c1CCCC2,-1.9,0.0195
COC(=O)CN1C(=S)N(C)C(=O)/C1=C/c1ccc(-c2ccc(Cl)cc2)o1,9.4,.
Oc1ccc(/C=N/n2cc(-c3ccccc3)[nH]c2=S)cc1,2.6,.
COC(=O)c1c(NC(=O)CCS(=O)(=O)c2ccc(F)cc2)sc(C)c1C,-0.5,1.32
COc1ccccc1NC(=O)C1CCCN(S(=O)(=O)c2cnc[nH]2)C1 (stereo not given),1.6,-0.19
Cc1[nH]n(-c2ccccc2)c(=O)c1N=Nc1ccccc1C(=O)N1CCCCC1,-3.0,0.0735
O=C(CN1C(=O)C2C3C=CC(C3)C2C1=O)NCC12CC3CC(CC(C3)C1)C2 (stereo not given),-0.3,.
CCOC(=O)c1nnc2c(Br)c(C)nn2c1C,0.6,.
Cn1c2c(c3ccccc31)CCc1nonc1-2,-0.3,0.437
Cc1cc(C(=O)CSc2ccc(S(=O)(=O)N3CCN(C)CC3)cn2)c(C)n1C1CC1,-0.8,.
COC(=O)N(C)CC1Cc2ccccc2O1 (stereo not given),3.2,.
CCN(c1ccccc1)c1nnc(NC(=O)Nc2cccc(OC)c2)s1,0.5,2.36
CC(C)CS(=O)(=O)C1=NN2C(=N)/C(=C\c3ccco3)C(=O)N=C2S1,5.5,0.726
Cc1nn(-c2cccc(C(F)(F)F)c2)c2sc(C(=O)NC3=NCCS3)cc12,0.5,.
CC1(C)CC(=O)C2=C(C1)Nc1nc(N)[nH]c(=O)c1C2c1ccc(F)cc1 (stereo not given),-4.5,-1.28
Cc1ccc(S(=O)(=O)/N=C(\c2ccccc2)n2nnc3ccccc32)cc1,-1.2,-0.921
O=S(=O)(c1ccc(-n2cccn2)cc1)N1CCn2c1nc1ccccc12,-1.9,0.0205
COc1cc2c(cc1OC)-c1n[nH]c(=S)n1C(C)(C)C2,-1.0,0.444
O=C(CSc1ncn(-c2ccccc2)n1)Nc1ccc(N2CCOCC2)cc1,2.2,0.139
O=C(CSc1nc2cc3c(cc2c(=O)n1CCC(=O)N1CCN(c2ccccc2)CC1)OCO3)c1ccccc1,-2.5,2.05
CNC(=S)N1CCCC1C(=O)Nc1ccc(Cl)cc1 (stereo not given),1.8,0.265
CN(C(=O)c1ccccc1C(=O)O)C1CCCCC1,0.5,.
COC(=O)Nc1ccc(S(=O)(=O)N(C)CC(F)(F)C(F)F)cc1,1.2,-0.996
Cc1cc(=O)[nH]c(SCC(=O)N2CCc3ccccc32)n1,0.1,.
CCc1cccc(NC(=O)CC(=O)Nc2ccc3nc4n(c(=O)c3c2)CCCCC4)c1,0.8,-1.08
COc1ccc(C(=O)NCc2ccc3c(c2)OCO3)cc1,-2.9,.
CCNC(=O)N1c2cc(C)ccc2C(C)=CC1(C)C,-0.7,1.81
Nc1cc(C(F)(F)F)c[nH]c1=O,0.8,.
